# Screens deposited in PubChem by several laboratories.
# PrP 5UTR inh: inhibition of PrP 5' UTR reporter expression. AID 488862. 0.35% of 340,000 active. cell-based PrP 5' UTR mRNA reporter, plate reader. inhibition, % (concentration not given with the values);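 active = every replicate at 50% or more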;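 also: 0 = median of the neutral control wells; tested in H4 reporter cells; numbers are from one replicate; inactives centre near -14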
# RN4220 kill: S. aureus RN4220 growth inhibition | OD600, 16 h | inhibition, % (no concentration beside the values) | AID 1259311 | 0.33% of 330,000 active;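 active = z-score of -3 or lower and OD600 up to 0.18 on both plates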;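 also: plate controls were untreated cells for no effect and reference antibiotic for full effect; stock transfer was 100 nL into about 80 µL; one replicate is shown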
# Sa ugtP lethal: growth inhibition of S. aureus ugtP deletion strain | growth inhibition, % (concentration not given with the values) | S. aureus RN4220 ugtP deletion, OD600 growth, 16 h; some inactives read as strong as hits | 0.54% of 330,000 active;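 active = z-score under -3 and OD600 up to 0.15 on both plates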;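 also: plate controls were untreated wells for no effect and antibiotic for full effect; wells of about 80 µL received 100 nL stock; the first replicate is given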
# BJeLR lethal: kills HRASV12-expressing BJeLR cells | BJeLR (HRASV12) viability, CellTiter-Glo ATP luminescence, 48 h; reference of the scale not given here | 0.17% of 300,000 active | AID 1554 | inhibition, % (no concentration beside the values);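 active = replicate mean above 50%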;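 also: 50 nL library stock added to about 25 µL; numbers are from one replicate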
# Autofluor counter: counter-screen for toxin protease inhibitors: compound fluorescence; compound autofluorescence counterscreen, microsphere flow cytometry; stronger effect = higher value; fluorescence intensity (test concentration not listed); 3.1% of 360,000 active; AID 624483;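 active = at least 3 SD above the mean of all compounds, about 16000 in these data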;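 also: 100 nL of 1 mM stock went into each well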
# Mtb hypoxia inh: inhibitors of hypoxia-regulated fluorescent reporter in Mycobacterium tuberculosis; fluorescence inhibition, % (test concentration not listed); AID 1159583; M. tuberculosis hypoxia-regulated fluorescent reporter, fluorescence; 0.1% of 300,000 active;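 active = 35 to 45% if threefold the growth effect, above 45% if 1.5-fold the growth effect; inactive = the rest, general growth blockers included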;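 also: wells of about 50 µL received 100 nL stock; 0% = vehicle wells and 100% = reference inhibitor wells; whole bacteria with a GFP reporter of the hypoxia response; strong numbers were not always called active; many hits fall short of the cut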
# Mtb hypoxia inh growth: also measured in Mtb hypoxia inh; calls as there; growth inhibition, %; measured here: M. tuberculosis growth (absorbance);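 0% = vehicle and 100% = reference antibiotic; read after six days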
# * marks the source's active call; other numbers are inactive results; x = no result given.
# Start of the listing, in advance, 15 compounds:
SMILES,PrP 5UTR inh,RN4220 kill,Sa ugtP lethal,BJeLR lethal,Autofluor counter,Mtb hypoxia inh,Mtb hypoxia inh growth
Cc1c2ccccc2nc2c(F)c(NC(C)C)c(F)c(F)c12,-87,-0.1,-10,1,3198,1,-6
Cc1ccc(OCCC(=O)OC(C)C(=O)NC2CC2)cc1 (configuration not stated),-27,-1.1,7,-3,5575,2,-13
Cc1nc(CC(=O)N2CCN(S(=O)(=O)c3ccccc3C#N)CC2)cs1,-17,1.1,5,3,3237,8,-1
Cc1ccc(N(Cc2ccc([N+](=O)[O-])cc2)C(=O)c2ccco2)cc1,-2,1.2,13,3,9553,-83,-15
CSCC(=O)Nc1nc(-c2ccc3c(c2)OCCO3)cs1,-114,2.8,-3,2,4708,1,9
O=S(=O)(Nc1cccc2c1ccc1cccn12)c1cccs1,-14,8.2,-15,0,4808,x,x
CN(Cc1ccccc1)c1nc(CN2CCOCC2)nc2scc(-c3ccccc3)c12,-6,2.0,44,-2,2042,-1,5
CC(C)(C)CN1CCC(Oc2cccc(C(=O)NCCCOc3cccnc3)c2)CC1,-3,3.4,5,-7,4213,6,10
CCN(CC(=O)Nc1ccc(NC(C)=O)cc1)C(=O)Cc1ccccc1F,-18,5.3,-2,4,3492,4,2
Cc1cccc(N2CCN(C(=O)CS(=O)(=O)Cc3nc(-c4ccccc4F)oc3C)CC2C)c1 (configuration not stated),-8,-0.6,9,-11,4568,7,1
CCN1C(=O)C(=O)N(CC(=O)Nc2cccc(C(F)(F)F)c2)C1=O,-9,2.1,1,x,3854,6,10
O=C(Nc1cc(C(F)(F)F)ccc1F)C1CCCCC1,4,3.3,-6,-5,10496,-1,5
CCCC(C#Cc1ccc(N(C)C)cc1)=C1c2ccccc2C(=O)N1c1ccccc1,x,-4.2,13,x,x,21,8
CN=C(NC(=O)Nc1c(C)cccc1C)NC(=O)Nc1c(C)cccc1C,-13,11,9,1,2719,10,-1
CCCC(=O)c1ccc(N2CCN(C(=O)c3ccc(Br)cc3)CC2)c(F)c1,1,14,21,-4,6912,8,5

# Main list (from the top)
SMILES,PrP 5UTR inh,RN4220 kill,Sa ugtP lethal,BJeLR lethal,Autofluor counter,Mtb hypoxia inh,Mtb hypoxia inh growth
Cc1c2ccccc2nc2c(F)c(NC(C)C)c(F)c(F)c12,-87,-0.1,-10,1,3198,1,-6
Cc1ccc(OCCC(=O)OC(C)C(=O)NC2CC2)cc1 (configuration not stated),-27,-1.1,7,-3,5575,2,-13
Cc1nc(CC(=O)N2CCN(S(=O)(=O)c3ccccc3C#N)CC2)cs1,-17,1.1,5,3,3237,8,-1
Cc1ccc(N(Cc2ccc([N+](=O)[O-])cc2)C(=O)c2ccco2)cc1,-2,1.2,13,3,9553,-83,-15
CSCC(=O)Nc1nc(-c2ccc3c(c2)OCCO3)cs1,-114,2.8,-3,2,4708,1,9
O=S(=O)(Nc1cccc2c1ccc1cccn12)c1cccs1,-14,8.2,-15,0,4808,x,x
CN(Cc1ccccc1)c1nc(CN2CCOCC2)nc2scc(-c3ccccc3)c12,-6,2.0,44,-2,2042,-1,5
CC(C)(C)CN1CCC(Oc2cccc(C(=O)NCCCOc3cccnc3)c2)CC1,-3,3.4,5,-7,4213,6,10
CCN(CC(=O)Nc1ccc(NC(C)=O)cc1)C(=O)Cc1ccccc1F,-18,5.3,-2,4,3492,4,2
Cc1cccc(N2CCN(C(=O)CS(=O)(=O)Cc3nc(-c4ccccc4F)oc3C)CC2C)c1 (configuration not stated),-8,-0.6,9,-11,4568,7,1
CCN1C(=O)C(=O)N(CC(=O)Nc2cccc(C(F)(F)F)c2)C1=O,-9,2.1,1,x,3854,6,10
O=C(Nc1cc(C(F)(F)F)ccc1F)C1CCCCC1,4,3.3,-6,-5,10496,-1,5
CCCC(C#Cc1ccc(N(C)C)cc1)=C1c2ccccc2C(=O)N1c1ccccc1,x,-4.2,13,x,x,21,8
CN=C(NC(=O)Nc1c(C)cccc1C)NC(=O)Nc1c(C)cccc1C,-13,11,9,1,2719,10,-1
CCCC(=O)c1ccc(N2CCN(C(=O)c3ccc(Br)cc3)CC2)c(F)c1,1,14,21,-4,6912,8,5
O=C(CSCc1ccc([N+](=O)[O-])cc1)Nc1ccccc1C(=O)O,-18,3.1,2,2,4193,x,x
O=C(Nc1ccccc1C(=O)Nc1ccccn1)c1cc(F)c(F)cc1Cl,-9,6.4,10,3,2834,4,5
CC(C)c1ccc(/C=N/NC(=O)c2nnn(-c3nonc3N)c2CSC2=NCCS2)cc1,-15,x,x,-4,2224,x,x
C/C(=C\C(=O)c1ccccc1)Nc1ccc(Cl)c(Br)c1,-22,4.4,-4,-4,2316,1,5
COc1ccc(NC(=O)Nn2cnnc2)cc1OC,-21,0.1,12,-6,5737,1,-14
CCOC(=O)C1CCCN(C(=O)c2ccc([N+](=O)[O-])c(C)c2)C1 (configuration not stated),-23,1.0,-1,1,2028,0,4
Cc1cccc(OCc2nnc(SCc3nc4cc(C(F)(F)F)ccc4c(=O)[nH]3)o2)c1,-26,4.1,-24,-12,3818,7,8
O=C(Nc1cccc(S(=O)(=O)N2CCCCC2)c1)C1=NN(c2ccccc2)C(=O)CC1,-3,0.9,-1,x,x,1,-4
Cc1ccccc1OCCN1C(=O)C(=O)c2cccc(C)c21,-5,25,6,1,2491,8,6
CCOc1ccc(C(C)C)cc1S(=O)(=O)N1CCN(C(=O)c2ccco2)CC1,-18,3.3,6,-8,3789,21,10
SMILES,PrP 5UTR inh,RN4220 kill,Sa ugtP lethal,BJeLR lethal,Autofluor counter,Mtb hypoxia inh,Mtb hypoxia inh growth
CCCCN(Cc1cc2ccccc2[nH]c1=O)S(=O)(=O)c1ccc(C)cc1,-13,5.4,5,-8,6343,x,x
O=C(O)c1cccc(O)c1O,-28,5.6,-1,-8,5908,-1,1
COc1ccc(NS(=O)(=O)c2cccc(Cl)c2Cl)cc1S(=O)(=O)N1CCCCC1,-6,11,3,-5,2474,11,-2
CC1CC(C)CN(CCCNC(=O)Cn2ncc3c(=O)oc4ccccc4c32)C1 (configuration not stated),-20,6.8,11,2,5995,9,7
CCC(=Nc1ccc(OC)cc1OC)c1c(O)n(C)c(=O)n(C)c1=O,-11,-1.7,10,-3,4925,x,x
COc1ccc(NC(=O)CN(C)C(=O)c2ccc(-c3cccc(C(F)(F)F)c3)o2)cc1,-27,-2.2,8,6,6203,13,4
O=C(C[n+]1ccc(-c2cc(C(=O)Nc3cccc(C(F)(F)F)c3)c3ccccc3n2)cc1)c1cccc([N+](=O)[O-])c1,-8,-19,-6,-2,3636,-2,21
COCc1cc(C)nc(NCCc2ccccc2)c1C#N,-27,10,11,0,2631,x,x
COc1ccc(CCNC(=O)c2cc3c(=O)n4ccccc4nc3n(CCCN3CCOCC3)c2=N)cc1,-20,x,x,10,4305,x,x
Cc1cccc(NC(=S)N/N=C2/CCCCc3ccccc32)c1,-95,x,x,-5,1870,x,x
CCC(CC)C(=O)Nc1cc([N+](=O)[O-])ccc1F,-35,5.3,6,-8,2440,4,0
COc1cc(NC(=S)N2CCN(C)CC2)cc(OC)c1,-9,4.2,10,-1,3839,4,-4
O=C(O)C1CCCC2CN3CCc4c([nH]c5ccccc45)C3C(O)C21 (configuration not stated),-9,17,2,24,x,12,5
O=C(Nc1cc(=O)[nH]c2ncnn12)c1ccc(Cl)cc1Cl,-14,5.8,10,16,2571,2,1
CN(Cc1ccco1)C(=O)CN1C(=O)NC(c2ccccc2)(c2ccccc2)C1=O,-20,0.4,6,x,5996,7,0
CCn1c(SCc2nc3sc(C(=O)O)c(C)c3c(=O)[nH]2)nnc1-c1ccc(Cl)cc1,-14,8.7,2,3,4077,8,6
COc1ccc(NC(=O)CSc2nc3ccccc3c(=O)n2CCNC(C)=O)c(OC)c1,-21,0.3,-4,-8,9748,-8,10
COc1cc(-c2nc3ccccn3c2N)ccc1O,1,5.6,11,-7,3024,0,2
CCn1c(SCC(=O)Nc2ccccc2OC)nc2ccccc2c1=O,-7,7.0,7,4,6947,5,2
O=C(COc1ccccc1Cl)NCCCNC(=O)c1cnccn1,-15,2.2,4,9,3708,-4,11
Cc1ccc(C)c(CNS(=O)(=O)c2c(C)[nH]c(C)c2C(=O)N2CCCC2)c1,-24,2.5,7,-3,5599,2,-3
Oc1ccc(NC(=S)Nc2ccc(O)cc2)cc1,-26,0.8,5,-7,4265,8,5
Cn1cnc2nc3n(c2c1=O)CCC3,-14,3.1,6,6,16811*,-1,5
CC(C)CNC(=O)c1ccccc1NC(=O)CN(c1ccc2c(c1)OCCO2)S(C)(=O)=O,-15,1.5,0,0,8978,2,-2
COc1ccc(C2C=CCN(C(=O)c3ccccc3)C(Cc3ccccc3)C(=O)N2Cc2ccc(F)cc2)cc1 (configuration not stated),x,5.9,1,x,x,2,-1
SMILES,PrP 5UTR inh,RN4220 kill,Sa ugtP lethal,BJeLR lethal,Autofluor counter,Mtb hypoxia inh,Mtb hypoxia inh growth
Cc1ccc(-n2ncc3c(=O)n(CC(=O)NC4CCCC4)cnc32)cc1C,-28,-15,1,-7,2878,1,7
Cc1ccc(C)c(OCC(=O)N2CCOCC2)c1,-6,2.9,-2,-2,4085,-4,1
O=C(CN1C(=O)c2ccccc2S1(=O)=O)NCc1ccc(F)cc1,-12,2.4,4,-5,4998,6,7
C[n+]1c2n(c3ccccc31)N=C(c1cc(C(C)(C)C)c(O)c(C(C)(C)C)c1)CS2,-2,99*,98*,-1,5000,x,x
C#CCN1N=C(c2ccc(C)cc2)CSC1=O,x,10,3,6,x,5,-3
N#CCc1ccc(C(=O)c2ccccc2F)s1,-23,-0.5,6,-9,2136,x,x
COc1ccc2cc(-c3[nH]ncc3CN3CCCN(c4ccccc4)CC3)ccc2c1,0,-6.4,-29,-9,2446,0,6
CCOC(=O)N1CCC(NC(=O)c2ccc(CS(=O)c3cccc(C)c3)o2)CC1 (configuration not stated),-3,0.3,7,3,4302,3,4
Cc1cc(NC(=O)C2CC(c3ccc(Cl)cc3)=NO2)no1 (configuration not stated),-8,4.1,8,11,2791,x,x
Cc1[nH]c2ccccc2c1/C=N/Nc1cccc(C(=O)O)c1,-4,x,x,-2,4734,x,x
CN(CCOC(=O)CN1C(=O)c2ccccc2C1=O)C1=NS(=O)(=O)c2ccccc21,x,6.7,4,2,x,10,5
CS(=O)(=O)NCc1nnc2n1-c1ccc(Cl)cc1C(c1ccccc1)=NC2,-15,-1.6,2,-17,1945,5,-2
CCn1nc(C)c(CNC(=O)C2CCC(=O)N(Cc3cccc(F)c3)C2)c1C (configuration not stated),-16,0.6,4,14,5638,2,1
CN1c2ccccc2Oc2c(c(=O)n(C)c(=O)n2C)C1c1cccc([N+](=O)[O-])c1 (configuration not stated),17,4.4,1,-1,2815,x,x
Cc1ccccc1-c1nc(S(=O)(=O)c2ccccc2)c(NCCCN2CCOCC2)o1,1,5.5,9,x,9561,14,2
O=S(=O)(NCC(c1cccnc1)N1CCOCC1)c1ccc(Cl)cc1 (configuration not stated),-6,-0.3,0,13,2664,3,-5
Nc1nc(SCc2ccccc2)c2[nH]cnc2n1,-14,3.2,-2,6,4385,14,0
CC(=O)c1c(C)[nH]c(C(=O)OCC(=O)Nc2sc3c(c2C#N)CCCC3)c1C,-13,4.4,-4,-2,2539,1,1
N/C(=N\OC(=O)c1ccc2c(c1)OCO2)c1cccnc1,-22,0.9,14,3,2176,6,6
CN(C)c1ccc(CN(C(=O)COc2ccc(Br)cc2)C2CCS(=O)(=O)C2)cc1 (configuration not stated),-15,7.2,-1,-3,13448,-3,2
COc1ccccc1NC(=O)CCc1nc(-c2cccs2)no1,-17,x,x,-1,4668,x,x
CN1C(=O)N(C)c2ccc(Br)c3cccc1c23,-11,9.2,-2,9,3926,14,1
CCOc1ccc(CNS(=O)(=O)c2ccc3c(c2)CC(=O)N3C)cc1,-13,2.2,7,4,5313,1,8
O=C(N/N=C/c1cn(-c2cccs2)nc1-c1ccccc1)c1ccccc1Br,-46,x,x,-10,2150,x,x
COc1cccc(NC(=O)Nc2nc(SC(C)(C)C)ns2)c1,-40,6.0,-14,-2,4177,1,4
O=C(Cc1cccc2ccccc12)Nc1nc2ccccc2[nH]1,8,-2.1,-17,-16,10672,-8,3

# Part of the list above, bar-delimited:
Compound | PrP 5UTR inh | RN4220 kill | Sa ugtP lethal | BJeLR lethal | Autofluor counter | Mtb hypoxia inh | Mtb hypoxia inh growth
C#CCN1N=C(c2ccc(C)cc2)CSC1=O | x | 10 | 3 | 6 | x | 5 | -3
N#CCc1ccc(C(=O)c2ccccc2F)s1 | -23 | -0.5 | 6 | -9 | 2136 | x | x
COc1ccc2cc(-c3[nH]ncc3CN3CCCN(c4ccccc4)CC3)ccc2c1 | 0 | -6.4 | -29 | -9 | 2446 | 0 | 6
